LANA-H2B inh: blocks KSHV LANA binding to histone H2A/H2B; AID 2629; actives 0.6% (n = 320,000); cell-free LANA-H2A/H2B peptide, fluorescence polarization; inhibition, % (concentration not given with the values); Q9QR71; in the data active = inhibition mostly above about 10%, no sharp cut-off; inactive = mostly below about 6.7%;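 note: stock transfer was 7.5 nL into about 10 µL; 0% = median of vehicle wells and 100% = median of positive control wells; one replicate is shown; the record names a cut of 25% in any replicate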
HNF4A DNA FP: change in binding of human HNF4 alpha to DNA. activity change, % at 10 µM. AID 1224865. actives 0.3% (n = 360,000). P41235. HNF4a-FITC DNA binding, fluorescence polarization, 1 h; in the data active = activity change above about 30%, passing the limit was not always enough;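 note: controls were the assay level and a saturating level of protein; the project sought stronger binding though the title names inhibitors; some compounds called inactive have numbers as strong as hits; positive values seem to mean higher polarization but the record does not say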
Target sequence (P41235 whole entry, looked up): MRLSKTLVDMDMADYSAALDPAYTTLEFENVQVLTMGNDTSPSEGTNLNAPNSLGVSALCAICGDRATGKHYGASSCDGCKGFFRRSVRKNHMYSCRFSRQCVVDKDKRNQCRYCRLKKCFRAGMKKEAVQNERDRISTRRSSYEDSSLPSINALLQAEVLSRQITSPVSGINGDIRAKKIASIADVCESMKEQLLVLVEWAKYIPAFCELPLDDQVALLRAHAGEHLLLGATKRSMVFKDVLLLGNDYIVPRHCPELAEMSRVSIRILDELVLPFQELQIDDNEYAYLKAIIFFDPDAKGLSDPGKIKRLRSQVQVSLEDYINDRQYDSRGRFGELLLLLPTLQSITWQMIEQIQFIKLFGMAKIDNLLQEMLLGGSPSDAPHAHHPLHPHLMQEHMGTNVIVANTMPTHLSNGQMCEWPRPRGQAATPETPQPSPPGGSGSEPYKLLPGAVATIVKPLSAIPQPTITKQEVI
Beta2AR agonist: agonists of human beta-2 adrenergic receptor inducing internalization; P07550; Am2.2-beta2AR cells, FAP receptor internalization, flow cytometry; reference of the scale not given here; response, % (test concentration not listed); actives 0.43% (n = 340,000); AID 504454;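 active = response above a set limit, near 3 SD of response in nonfluorescent compounds, cut at about 42% in these data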;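 note: stock transfer was 100 nL into about 11 µL; a reference agonist was the positive control; negative values mostly stem from fluorescent compounds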
Target sequence (P07550 whole entry, looked up): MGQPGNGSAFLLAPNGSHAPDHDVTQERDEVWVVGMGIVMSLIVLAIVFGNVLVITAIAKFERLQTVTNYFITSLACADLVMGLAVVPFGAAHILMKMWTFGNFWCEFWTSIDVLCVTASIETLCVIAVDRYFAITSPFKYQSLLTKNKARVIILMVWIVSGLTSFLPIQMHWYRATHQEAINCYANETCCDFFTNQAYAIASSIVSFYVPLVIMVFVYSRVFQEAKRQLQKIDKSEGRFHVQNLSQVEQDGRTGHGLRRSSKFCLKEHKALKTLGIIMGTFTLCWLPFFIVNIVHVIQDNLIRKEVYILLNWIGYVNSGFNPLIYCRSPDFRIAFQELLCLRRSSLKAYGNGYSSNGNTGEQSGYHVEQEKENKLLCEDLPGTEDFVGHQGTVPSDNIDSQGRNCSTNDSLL
E coli growth: E. coli growth inhibition; OD600 absorbance (test concentration not listed); actives 0.21% (n = 330,000); AID 1053175; Escherichia coli growth, OD600, 23 h; hits give low values;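 active = OD600 absorbance below the run mean of sample wells minus 3.6 SD, in any replicate, cut at about 0.56 in these data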;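 note: stock transfer was 300 nL into about 60 µL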
Bfl-1 A1 inh: inhibitors of the anti-apoptotic protein A1, read as caspase activation; MEF A1-2A-BIM cells, Caspase-Glo 3/7 luminescence, 3 h; percent of clofoctol response, vehicle zero; caspase activation, % (test concentration not listed); actives 0.066% (n = 330,000); AID 2462;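 active = over half of replicate activation scores above 10%, or exactly half above 10 with the replicate mean above 10; inconclusive = replicate mean below 10 yet half the replicates above 10; inactive = over half of replicates below 10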;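 note: wells of about 30 µL received 50 nL stock; many hits fall short of the cut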
UCH37 DUB inh: blocks the human deubiquitinase UCH37 | inhibition, % (no concentration beside the values) | Q9Y5K5 | purified proteasome/UCH37, Ub-AMC cleavage fluorescence | actives 0.33% (n = 330,000);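 active = mean of two replicates above 20%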;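 note: 0% = compound-free wells with enzyme and 100% = wells lacking proteasome; stock transfer was 100 nL into about 20 µL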
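Assay system: Proteasome-bound UCH37. Buffer or medium: pH 7.4 Tris-HCl (50 mM) with ovalbumin, ATP-MgCl2, DTT. Incubation: 30 min preincubation with enzyme, 25 min cleavage at room temperature. Measured by: fluorescence, ex 355 nm, em 460 nm. Read-out basis: percent inhibition. Control set: wells without proteasome as full block, compound-free enzyme plus substrate as uninhibited.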
Vif A3G: inhibitors of Vif binding to APOBEC3G peptide, primary screen, biochemical, TR-FRET, GST-Vif 1-94, biotin-A3G peptide, dose response retest (AID 1117319); TR-FRET GST-Vif / biotin-A3G peptide binding; higher % means a stronger effect; test concentration not given here; strong numbers were not always called active; one-dose inhibition, %; IC50 in µM for titrated hits; actives 0.57% (n = 260,000);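 active = above the screen mean plus three standard deviations and confirmed in dose response; inconclusive = results disagree or hit not tested in dose response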;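 note: Vif residues 1-94 fused to GST binding biotinylated APOBEC3G peptide 110-148; 0% = full assay without inhibitor and 100% = GST in place of GST-Vif; retest series ran down from 100 µM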
* hit, by the source's call.

How did CCOc1ccc(C(=O)CCC(=O)NC(CC(C)C)C(=O)OC)cc1 (stereo not drawn) do in these assays?
LANA-H2B inh: -0.3; HNF4A DNA FP: 0.4; Beta2AR agonist: 3.3; E coli growth: 0.705; Bfl-1 A1 inh: 0.2; UCH37 DUB inh: 0.7; Vif A3G: -8.1%

Results for CCN(CC(=O)Nc1ccc(NC(C)=O)cc1)C(=O)c1oc2ccccc2c1C ?
LANA-H2B inh: -6.1; HNF4A DNA FP: -1.3; Beta2AR agonist: -10.5; E coli growth: 0.586; Bfl-1 A1 inh: 0.2; UCH37 DUB inh: 1.1; Vif A3G: 1.4%

What do the screens show for `Oc1ccc(/C=C/c2ccnc3ccccc23)cc1`?
LANA-H2B inh: -3.0; HNF4A DNA FP: 7.7; Beta2AR agonist: 3.1; Bfl-1 A1 inh: -3.6; UCH37 DUB inh: -2.4; Vif A3G: inconclusive

What do the screens show for `CC(C)Cn1c(N)c(C(=O)COC(=O)C2=COCCO2)c(=O)n(C)c1=O`?
LANA-H2B inh: 1.9; HNF4A DNA FP: 0.1; Beta2AR agonist: 3.4; E coli growth: 0.687; Bfl-1 A1 inh: 0.2; UCH37 DUB inh: 0.9; Vif A3G: 3.0%

What do the screens show for `COc1ccc2c(=O)c(N3C(=O)c4ccccc4C3=O)coc2c1`?
LANA-H2B inh: -0.2; HNF4A DNA FP: 1.4; Beta2AR agonist: -3.1; E coli growth: 0.689; Bfl-1 A1 inh: 1.4; UCH37 DUB inh: 5.2; Vif A3G: 18.4%

What do the screens show for `COc1ccc(-c2cc(-c3nnc(COC(=O)c4ccc(O)cc4)o3)c3ccccc3n2)cc1OC`?
LANA-H2B inh: 4.4; HNF4A DNA FP: 4.5; Beta2AR agonist: 11.5; E coli growth: 0.646; Bfl-1 A1 inh: 0.1; UCH37 DUB inh: -211.3; Vif A3G: -7.8%

What do the screens show for `COc1ccc(C(=O)Oc2ccc[nH]c2=O)cc1`?
LANA-H2B inh: -4.5; HNF4A DNA FP: -0.7; Beta2AR agonist: 3.4; E coli growth: 0.68; Bfl-1 A1 inh: -0.6; UCH37 DUB inh: 3.0

Results for Cc1cc(-c2nn(-c3ccccc3F)cc2CNCCc2cnc[nH]2)c(C)s1 ?
LANA-H2B inh: -4.4; HNF4A DNA FP: 2.4; Beta2AR agonist: 5.2; E coli growth: 0.669; Bfl-1 A1 inh: 0.0; UCH37 DUB inh: 3.7; Vif A3G: -4.3%

Results for CCOC(=O)C1=C(O)/C(=C/c2cccc(OC)c2O)N=C1C ?
LANA-H2B inh: 1.7; HNF4A DNA FP: 4.7; Beta2AR agonist: -0.2; E coli growth: 0.657; Bfl-1 A1 inh: -0.6; UCH37 DUB inh: 13.1; Vif A3G: -0.6%

What do the screens show for `COC(=O)CC1C(=O)NCCN1C(=O)c1ccc2oc(C(C)C)nc2c1` (stereo not drawn)?
LANA-H2B inh: 0.6; HNF4A DNA FP: -2.1; Beta2AR agonist: -0.4; E coli growth: 0.675; Bfl-1 A1 inh: 0.0; UCH37 DUB inh: 1.4

How did Cc1c(O)ccc(C(=O)CN2CCN(Cc3ccccc3)CC2)c1O do in these assays?
LANA-H2B inh: -1.4; HNF4A DNA FP: 1.4; Beta2AR agonist: -0.8; E coli growth: 0.697; Bfl-1 A1 inh: 0.1; UCH37 DUB inh: 8.4

How did C#CCOc1nc(OCC#C)nc(OCC#C)n1 do in these assays?
LANA-H2B inh: -2.7; HNF4A DNA FP: -4.5; Beta2AR agonist: -7.7; E coli growth: 0.719; Bfl-1 A1 inh: 0.6; UCH37 DUB inh: 1.9; Vif A3G: 5.4%

Results for COc1ccccc1/C=C/C=N/n1c(-c2ccco2)n[nH]c1=S ?
LANA-H2B inh: 0.9; HNF4A DNA FP: 4.9; Beta2AR agonist: 5.8; Bfl-1 A1 inh: -0.6; Vif A3G: 16.0%

Results for COc1ccc(C=NNc2ccc(S(=O)(=O)Nc3ccccc3C(=O)O)cc2[N+](=O)[O-])c(OC)c1 ?
LANA-H2B inh: 1.2; HNF4A DNA FP: -7.9; Beta2AR agonist: -9.9; E coli growth: 0.694; Bfl-1 A1 inh: 1.8; UCH37 DUB inh: 31.5*

What do the screens show for `COc1cccc2cc(C(=O)NCC3CCCO3)c(=O)oc12` (stereo not drawn)?
LANA-H2B inh: -4.5; HNF4A DNA FP: 4.0; Beta2AR agonist: 2.8; E coli growth: 0.728; Bfl-1 A1 inh: 0.4; UCH37 DUB inh: -4.8; Vif A3G: 7.7%

What do the screens show for `Oc1[nH]c2c(Cl)cc(Cl)cc2c1N=NC(=S)NCC1CCCO1` (stereo not drawn)?
LANA-H2B inh: 3.4; HNF4A DNA FP: -1.1; Beta2AR agonist: 5.8; E coli growth: 0.614; Bfl-1 A1 inh: -0.7; UCH37 DUB inh: 8.8

What do the screens show for `Cc1[nH]nc2c1C(c1ccsc1)C(C#N)=C(N)O2` (stereo not drawn)?
LANA-H2B inh: 0.8; HNF4A DNA FP: -0.2; Beta2AR agonist: 7.3; E coli growth: 0.724; Bfl-1 A1 inh: -0.4; UCH37 DUB inh: -2.7; Vif A3G: -1.7%

Results for C=CCN1CC(O)=C(c2ccccc2)C1=N ?
LANA-H2B inh: 1.0; HNF4A DNA FP: -1.0; Beta2AR agonist: -5.3; E coli growth: 0.721; Bfl-1 A1 inh: 0.5; UCH37 DUB inh: 2.6; Vif A3G: 2.7%

How did Cc1ccc(NC(=O)C2C(c3ccccc3)C2(Cl)Cl)c(C)c1 (stereo not drawn) do in these assays?
LANA-H2B inh: 5.1; HNF4A DNA FP: -3.0; Beta2AR agonist: 5.6; E coli growth: 0.677; Bfl-1 A1 inh: -0.1; UCH37 DUB inh: 0.8; Vif A3G: -0.4%

How did CCOC(=O)c1cnn(CCOC(=O)c2ccc(OC)cc2)c1NC(=O)c1ccc(OC)cc1 do in these assays?
LANA-H2B inh: 1.9; HNF4A DNA FP: 4.7; Beta2AR agonist: 2.6; E coli growth: 0.733; Bfl-1 A1 inh: 3.0; UCH37 DUB inh: 0.2

What do the screens show for `COC(=O)N(NC(=O)C(O)(C(C)C)C(C)C)c1ccccc1`?
LANA-H2B inh: -1.8; HNF4A DNA FP: 3.1; Beta2AR agonist: 6.1; E coli growth: 0.668; Bfl-1 A1 inh: 1.0; UCH37 DUB inh: 4.9; Vif A3G: 13.2%

How did COc1ccc(C(=O)NN)cc1COc1ccc(Br)cc1 do in these assays?
LANA-H2B inh: -4.6; HNF4A DNA FP: 0.1; Beta2AR agonist: 1.7; E coli growth: 0.653; Bfl-1 A1 inh: 1.3; UCH37 DUB inh: 3.9; Vif A3G: 10.0%

Results for Cc1ccc(N(CC(=O)N2CCCCCC2)S(C)(=O)=O)cc1Cl ?
LANA-H2B inh: -8.9; HNF4A DNA FP: 4.9; Beta2AR agonist: -0.6; E coli growth: 0.675; Bfl-1 A1 inh: 1.9; UCH37 DUB inh: 4.3; Vif A3G: 5.8%

How did Cc1ccc(S(=O)(=O)N(C)c2ccccc2C(=O)Nc2c(F)cccc2F)cc1 do in these assays?
LANA-H2B inh: 0.8; HNF4A DNA FP: -0.3; Beta2AR agonist: 1.4; E coli growth: 0.642; Bfl-1 A1 inh: -0.4; UCH37 DUB inh: 2.1

What do the screens show for `S=c1[nH]nc(-c2cc(-c3ccccc3)n[nH]2)n1/N=C/c1ccc(Br)s1`?
LANA-H2B inh: -0.1; HNF4A DNA FP: 12.2; Beta2AR agonist: 3.5; Bfl-1 A1 inh: 0.1; Vif A3G: 1.9%

Results for COc1ccc(-c2ccc3c(c2)[C@@H]2C[C@H](N(C)C(=O)C(C)(C)C)[C@H]([C@H](C)O)C(=O)N2CC3)cc1 ?
HNF4A DNA FP: 4.1; Beta2AR agonist: 4.9; Vif A3G: 19.3%

Results for CC(=O)N[C@@H](Cc1c[nH]c2ccccc12)C(=O)OCC(=O)Nc1cc(C)on1 ?
HNF4A DNA FP: 5.8; Beta2AR agonist: 2.9; E coli growth: 0.685; UCH37 DUB inh: 3.4; Vif A3G: -4.2%

What do the screens show for `O=S(=O)(c1ccc(OC(F)(F)F)cc1)N1CCC(O)(c2cccc(C(F)(F)F)c2)CC1`?
LANA-H2B inh: 1.8; HNF4A DNA FP: -0.4; Beta2AR agonist: 6.0; E coli growth: 0.685; Bfl-1 A1 inh: -1.0; UCH37 DUB inh: 6.2; Vif A3G: -10.2%

How did COc1ccc(-c2cc3nc(C)cc(C)n3n2)cc1 do in these assays?
LANA-H2B inh: -1.1; HNF4A DNA FP: -1.6; Beta2AR agonist: -3.5; E coli growth: 0.687; Bfl-1 A1 inh: -6.0; UCH37 DUB inh: -24.6; Vif A3G: -7.5%

How did CCOC(=O)c1sc(C)c2c1NC1(CCCCCC1)NC2=O do in these assays?
LANA-H2B inh: -4.7; HNF4A DNA FP: 2.1; Beta2AR agonist: -3.3; E coli growth: 0.739; Bfl-1 A1 inh: -0.5; UCH37 DUB inh: -23.5; Vif A3G: -55.4%

Results for CCN(CC)C(=O)CSc1nc2c(sc(=S)n2-c2ccccc2)c(=O)[nH]1 ?
LANA-H2B inh: -1.1; HNF4A DNA FP: 6.5; Beta2AR agonist: 6.6; E coli growth: 0.696; Bfl-1 A1 inh: -0.5; UCH37 DUB inh: 5.3

Results for COc1ccc2cc3cc(C(=O)NCCN4CCN(c5ccccc5F)CC4)oc3nc2c1 ?
LANA-H2B inh: 1.2; HNF4A DNA FP: 5.6; Beta2AR agonist: 16.0; E coli growth: 0.723; Bfl-1 A1 inh: 2.1; UCH37 DUB inh: -498.4; Vif A3G: 1.1%

What do the screens show for `CC1=CCC[C@@H]2[C@@](C)(CC/C(C)=C/C(=O)O)[C@H](C)CC[C@@]12C`?
LANA-H2B inh: -3.0; HNF4A DNA FP: -6.0; Beta2AR agonist: 0.0; Bfl-1 A1 inh: 1.0; UCH37 DUB inh: 7.9; Vif A3G: 21.6%

Results for Cc1c(NC(=O)Nc2cc(Cl)ccc2Cl)c(=O)n(-c2ccccc2)n1C ?
LANA-H2B inh: -1.3; HNF4A DNA FP: 14.2; Beta2AR agonist: -9.5; E coli growth: 0.717; Bfl-1 A1 inh: 1.1; UCH37 DUB inh: 0.5

What do the screens show for `Cc1ccc(S(=O)(=O)N2CCN(S(C)(=O)=O)CC2)cc1`?
LANA-H2B inh: -6.5; HNF4A DNA FP: 0.1; Beta2AR agonist: -2.3; E coli growth: 0.678; Bfl-1 A1 inh: 0.1; UCH37 DUB inh: 0.0; Vif A3G: 7.1%

What do the screens show for `CCOc1ccc(C(=O)NCC(C)CN(C)C)cc1OCC` (stereo not drawn)?
LANA-H2B inh: -2.6; HNF4A DNA FP: 0.1; Beta2AR agonist: 15.6; E coli growth: 0.71; Bfl-1 A1 inh: 0.2; UCH37 DUB inh: -0.3; Vif A3G: -7.6%

What do the screens show for `CC(=O)c1ccc(N2CCN(C(=O)CCNC(=O)Cn3ccc4ccccc4c3=O)CC2)cc1`?
LANA-H2B inh: -1.0; HNF4A DNA FP: -4.3; Beta2AR agonist: 0.6; E coli growth: 0.617; Bfl-1 A1 inh: 0.6; UCH37 DUB inh: 2.6

What do the screens show for `Cc1ccc(C(=O)NC(N2CCCC2)C(Cl)(Cl)Cl)cc1` (stereo not drawn)?
LANA-H2B inh: -1.9; HNF4A DNA FP: 1.0; Beta2AR agonist: 7.5; E coli growth: 0.7; Bfl-1 A1 inh: 0.8; UCH37 DUB inh: -2.5; Vif A3G: 12.2%

Assay outcomes deposited in PubChem by several laboratories.
